HBB splice mod = qHTS Assay for Modulators of Hemoglobin Beta Chain Splicing; HBB splicing reporter cell assay, activation; EGFP reporter with mutant IVS2-654 intron; response scale: normalised to 500 nM splice-correcting PNA; Potency, µM (titrated, usually from 46.1 µM), inactives show at the highest dose activation, most hits filed as activators; hit rate 0.06% among 65,000; AID 925, 2007; note: potency is the fitted concentration of half-maximal effect; 0% is about no effect
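Compounds were applied for 2 days to HeLa EGFP-654 cells, 500/well in Optimem with 2% FCS. The reporter's EGFP is disrupted by mis-splicing of beta-globin intron IVS2-654. Readout: summed well GFP fluorescence from 488 nm laser scanning; reference was 500 nM antisense […] 654 PNA.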
Ub-GFP proteasome = Ubiquitin-GFP Assay | Potency, µM (series often up to 45.9 µM), for inactives: at the highest dose activation (GFP accumulation), actives largely listed as activators | AID 526, 2006 | 67,000 tested, under 10 active | Ubiquitin-GFP reporter cells, proteasome inhibition, GFP fluorescence; response scale: untreated = 0%, 10 µM MG-132 = 100%; active = well fitted activation curve with a large enough effect, not every such curve was filed as active; inconclusive = small, poorly fitted or top-dose-only effect, or another doubt; inactive = no such curve, though single readings can be large or run the other way; note: potency is the fitted concentration of half-maximal effect
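Proteasome block read as GFP accumulation: ubiquitin(G76V)-GFP U2OS cells exposed to compound (2.9 nM–46 uM) for 4 hr at 37 C. Normalization used untreated cells as 0% and 10 uM MG-132 as 100%; concentration-response curves fitted.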
GFP derepression = qHTS Assay for Epigenetic Modulators. mouse C127i GFP locus derepression, cytometry, 30 h. Potency, µM (highest dose often 46.1 µM), without a hit: at the top dose GFP derepression (activation). hit rate 0.09% among 68,000. AID 597, 2007; note: % of control where 0% means no effect
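Murine C127i mammary cells carrying a silenced, stably integrated CMV-driven GFP reporter were treated with compound for 30 hours at 37 C. After PBS washes, GFP-positive cells were counted by laser-scanning microplate cytometry.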
Hsp90 Hop PPI = qHTS Assay for Disrupters of an Hsp90 Co-Chaperone Interaction; Hsp90 C-terminal peptide / TPR2A (Hop) interaction, human; AlphaScreen TPR2A-His6 binding biotin-Hsp90 C-terminal peptide; Potency, µM (highest dose often 57 µM), without a hit: at the highest dose activity change, negative = inhibition; hit rate 0.44% among 71,000; AID 595, 2007; active = well fitted curve in either direction with a large enough effect; inconclusive = small, poorly fitted or top-dose-only effect, or another doubt; note: potency is the fitted concentration of half-maximal effect; % is set by controls: 0 for no effect and ±100 for the full control effect; many of its hits are not listed in these tables
TexasRed autofl = qHTS Assay for Spectroscopic Profiling in Texas Red Spectral Region | AID 587, 2007 | hit rate 0.06% among 59,000 | Compound fluorescence, Texas Red channel, 547/618 nm; hits give high values | max dye-equivalent concentration, M; in the data active = max dye-equivalent concentration above about 10 nM; inconclusive = between about 1.1 nM and that limit
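Dye-equivalent concentrations come from scaling compound signal (ex 547, em 618 nm) to six Texas Red standard concentrations run on every plate, after 15 min room-temperature incubation in pH 8.0 Tris (100 mM).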
CRE Fsk mod = Cell signaling CRE-BLA (Fsk stim). CHO CRE-bla reporter (cAMP response element driving beta-lactamase), forskolin EC10, beta-lactamase ratio. Potency, µM (titrated, usually from 38.2 µM), inactives show at the top dose activity change, negative = inhibition, actives largely listed as activators. hit rate 2.5% among 71,000. AID 662, 2007; active = well fitted activation curve with a large enough effect in the signal ratio, with a control signal flat, not every such curve was filed as active; inconclusive = small, poorly fitted or top-dose-only effect, or effect the other way, or a change in a side signal; the % refers to the signal ratio; note: potency is the fitted concentration of half-maximal effect; % of control where 0% means no effect
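The 460nm/530nm emission ratio after CCF4 loading defined %Activity, from which AC50 values were obtained. CRE-bla CHO cells received compound dilution series together with an EC10 level of NKH 477 for 3 hours at 37 degrees Celsius.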
* marks the source's active call; other numbers are inactive results; i = inactive; ? = inconclusive; · = no result given; [ ] = dose if it differs, or a comment. Unless noted, calls come from the whole dose curve; as a rule, active = well fitted curve in the direction sought with a large enough effect; inconclusive = small, poorly fitted or top-dose-only effect, or another doubt; inactive = no such curve, though single readings can be large; an effect the other way counts as inactive or inconclusive. Only part of the results is shown; the hit share may differ from the screen's.

entry	structure	Hsp90 Hop PPI	GFP derepression	Ub-GFP proteasome	CRE Fsk mod	TexasRed autofl	HBB splice mod
1	C=C(NC(=O)C(=C)NC(=O)c1csc(C2=N[C@@H]3c4csc(n4)[C@@H]4NC(=O)c5csc(n5)[C@@H]([C@](C)(O)[C@H](C)O)NC(=O)[C@@H]5CSC(=N5)/C(=C/C)NC(=O)[C@@H]([C@H](C)O)NC(=O)c5csc(n5)[C@]3(CC2)NC(=O)[C@@H](C)NC(=O)C(=C)NC(=O)[C@@H](C)NC(=O)[C@@H]([C@@H](C)CC)N[C@H]2C=Cc3c([C@H](C)O)cc(nc3[C@@H]2O)C(=O)O[C@H]4C)n1)C(N)=O	1%[26 µM]	?	5%[20.5 µM]	-2%[17.1 µM]	i	2.7%[20.6 µM]
2	CN1CCC[C@H]1c1cccnc1	0%	·	·	-16%	·	-0.8%
3	N=C(N)c1ccccc1	-3%	-2%	0%	-2%	i	-1.2%
4	C[N+](C)(C)CC(=O)O	-1%	1%	-2%	5%	?	2.8%
5	C=CCSc1nnc(-c2ccccc2NC(C)=O)c(=O)[nH]1	-3%	2%	-7%	?	i	0.5%
6	CC(CN(C)Cc1ccccc1)OC(=O)c1cccs1 (centres undefined)	18%	-4%	-3%	1%	?	·
7	O=C(O)CCC(=O)C(=O)O	-1%[11 µM]	0%[9.22 µM]	-5%[9.17 µM]	-3%[7.6 µM]	i	4.7%[9.22 µM]
8	CO/N=C(\C(=O)N[C@@H]1C(=O)N2C(C(=O)O)=C(COC(C)=O)CS[C@@H]12)c1csc(N)n1	-3%[26 µM]	0%[20.6 µM]	4%[20.5 µM]	1%[17.1 µM]	i	0.2%[20.6 µM]
9	CN(C)C(N)=NCCC[C@H](N)C(=O)O	-7%	0%	-2%	3%	i	-0.7%
10	C(=C\c1ccccc1)/CN1CCN(C(c2ccccc2)c2ccccc2)CC1	·	-2%[20.6 µM]	·	·	i	·
11	NCCS	-1%	-1%	-8%	-1%	i	1.2%
12	COCCCC/C(=N\OCCN)c1ccc(C(F)(F)F)cc1	·	-2%[20.6 µM]	·	·	i	·
13	CN1CCC[C@@H]1c1cccnc1.O=C(O)c1ccccc1O.O=C([OH2+])c1ccccc1O.O=C([OH2+])c1ccccc1O.O=C([OH2+])c1ccccc1O.[Cu]	0%[11 µM]	4%[9.22 µM]	3%[9.17 µM]	?	i	4.3%[9.22 µM]

Quoted from above, compounds 2–12
entry	structure	Hsp90 Hop PPI	GFP derepression	Ub-GFP proteasome	CRE Fsk mod	TexasRed autofl	HBB splice mod
2	CN1CCC[C@H]1c1cccnc1	0%	·	·	-16%	·	-0.8%
3	N=C(N)c1ccccc1	-3%	-2%	0%	-2%	i	-1.2%
4	C[N+](C)(C)CC(=O)O	-1%	1%	-2%	5%	?	2.8%
5	C=CCSc1nnc(-c2ccccc2NC(C)=O)c(=O)[nH]1	-3%	2%	-7%	?	i	0.5%
6	CC(CN(C)Cc1ccccc1)OC(=O)c1cccs1 (centres undefined)	18%	-4%	-3%	1%	?	·
7	O=C(O)CCC(=O)C(=O)O	-1%[11 µM]	0%[9.22 µM]	-5%[9.17 µM]	-3%[7.6 µM]	i	4.7%[9.22 µM]
8	CO/N=C(\C(=O)N[C@@H]1C(=O)N2C(C(=O)O)=C(COC(C)=O)CS[C@@H]12)c1csc(N)n1	-3%[26 µM]	0%[20.6 µM]	4%[20.5 µM]	1%[17.1 µM]	i	0.2%[20.6 µM]
9	CN(C)C(N)=NCCC[C@H](N)C(=O)O	-7%	0%	-2%	3%	i	-0.7%
10	C(=C\c1ccccc1)/CN1CCN(C(c2ccccc2)c2ccccc2)CC1	·	-2%[20.6 µM]	·	·	i	·
11	NCCS	-1%	-1%	-8%	-1%	i	1.2%
12	COCCCC/C(=N\OCCN)c1ccc(C(F)(F)F)cc1	·	-2%[20.6 µM]	·	·	i	·

Source: PubChem (National Center for Advancing Translational Sciences (NCATS))
